Screening data as filed in PubChem.
Tg IFNy HTS – blocks Toxoplasma gondii growth in the presence of IFN-gamma; activity change, negative = inhibition, %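 (about 20 µM by stock and volumes)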; actives 3.8% (n = 69,000); AID 1259416; Toxoplasma gondii growth in IFN-gamma-treated host cells; hits give low values; reference of the scale not given here;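 active = below -70%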;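 also: host cells are HeLa cells infected with Toxoplasma gondii; parasite growth read as luciferase light; one replicate is shown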
The depositor's hits bear a star; i = inactive; & = joins results of further samples; ! = a repeat was not active.

compound | Tg IFNy HTS
COc1ccc(CCNc2ncnc3c2cnn3-c2ccc(Cl)cc2)cc1OC | -53
Cc1oc(C2CCN(S(=O)(=O)c3cccc(C#N)c3)CC2)nc1C(=O)N1CCOCC1 | 137
Cc1oc(-c2ccco2)nc1CN1CC[C@H](O)[C@@H](O)C1 | -5
Cc1ccc(C(=O)COC(=O)CNC(=O)c2ccco2)cc1 | -10
C[C@@H](NC(=O)C[C@@H]1C=C[C@@H](NC(=O)c2cccnc2)[C@H](CO)O1)c1ccccc1 | -28
O=C(NCCc1csc(-c2cccc(F)c2)n1)c1ccco1 | -23
CSCCC(C(=O)O)n1cnnn1 (stereo not given) | 46
Cc1[nH]c2ccccc2c1CC(=O)N1Cc2cnc(CC(C)C)nc2C1 | 1
CN1CCC(C)(CNC(=O)CSc2nc3ccccc3c(=O)[nH]2)C1 (stereo not given) | 3
COc1cccc(-c2noc(-c3c(O)c4cc(C)ccc4[nH]c3=O)n2)c1OC | 12
Cl/C(=C/n1cncn1)c1ccc(Cl)cc1Cl | -53
Cc1ccc(C2(O)CCN(C(=O)c3ccc4sc(N)nc4c3)CC2)nc1 | 3
O=C1CCCCCN1CCC(=O)N1CCC(CO)(Cc2ccccc2)CC1 | 29
CCC(=O)N1CC2(C1)[C@H](c1ccccc1)[C@@H](CO)N2CC1CC1 | 101
COc1ccc2c3c([nH]c2c1)[C@@H](CO)N(C(=O)CN(C)C)CC31CCN(Cc2cncnc2)CC1 | 9
Cc1nccn1CCN(C)c1nc(-c2ccc(Cl)cc2)nc2c1CNC2 | -17
COc1ccc(CN(Cc2cccnc2)Cc2ccco2)cc1Cn1ccnc1 | 2
CN(C1CCCCC1)S(=O)(=O)c1ccccc1 | -27
CNC[C@@H]1OCCCC[C@@H](C)Oc2ccc(N)cc2C(=O)N([C@@H](C)CO)C[C@H]1C | 81
C[C@@H]1CN(C(=O)c2cccs2)C[C@@]12CCN(c1cccnc1)C2=O | 10
CN1CCN(C(=O)c2cc(-c3ccn(-c4ccccc4)n3)n3ccccc23)CC1 | -1
CC(C)N(Cc1ccccc1)CC1(O)CCN(C(=O)c2ccc(=O)n(C)n2)CC1 | -23
COC(=O)C[C@H]1CC[C@H]2[C@H](COc3ccc(NS(=O)(=O)c4ccc(C)cc4)cc3C(=O)N2C)O1 | 8
O=C(CC1N=C2c3ccccc3N=C(SCc3ccc(Cl)cc3)N2C1=O)NCc1cccs1 (stereo not given) | -45
CC(C)Oc1ccc(C2NC(=O)c3ccccc3O2)cc1 (stereo not given) | -98*
CC(C)Cc1noc(CNC(=O)C(C)N2C(=O)c3cccc4cccc2c34)n1 (stereo not given) | 1
COc1ccccc1C(=O)NCCc1sc(-c2ccc(Cl)cc2)nc1C | -107*
Cc1ccc2nc(C)c(C(=O)NCCSc3ncn[nH]3)cc2c1 | 35
CCOc1ccccc1-c1ccccc1N | 11
Cc1ccc(C(=O)N2CC[C@@H]3[C@@H]2CCC(=O)N3Cc2csc(C)n2)o1 | 62
Nc1ccc(CCC(=O)N2CCCC2)cc1 | -30
CCC(=O)N(C)C[C@H]1[C@@H](c2ccc(-c3cccc(F)c3)cc2)[C@@H](CO)N1C(C)=O | -11
CC(C)C(=O)c1nc(-c2cn(-c3ccccn3)cn2)n2ccccc12 | 47
COc1ccc(-c2nc(Nc3ccc(Cl)cc3)c3ccccc3n2)cc1 | -42
Cn1nc(-c2cccnc2)cc1CN1CCN(C(=O)C2CCCCC2)CC1 | 1
c1ncc(CCCC2CCNCC2)[nH]1 | 10
O=C(Nc1ccccc1Cl)N1C[C@@H]2[C@H](c3ccccc31)[C@@H](CO)N2C(=O)c1cccnc1 | -5
C=Cc1cccc(CN2CCC3(CCCN(C(=O)CCOC)C3)C2)c1 (stereo not given) | -3
COc1ccccc1CNC(=O)Cn1c(=O)cc(-c2nc(C(C)C)no2)c2ccccc21 | -27
COCCCNC(=O)Cn1ncc2c(N3CCN(c4ccccn4)CC3)ncnc21 | 99
CN(C)C[C@@]12COC[C@H]1CN(C(=O)N(C)C)C2 | 23
Cc1ccc(C2CC(=O)C(C=NCCN3CCN(C(=S)Nc4ccccc4)CC3)=C(O)C2)cc1 (stereo not given) | -32
CN1C(=O)c2cc(NC(=O)c3cnccn3)ccc2OC[C@@H]2O[C@@H](CC(=O)N[C@H]3CCN(Cc4ccccc4)C3)CC[C@H]21 | -19
CC(C)(C)S(=O)N1Cc2cc(C(=O)NCc3ccc(Oc4ccccc4)cc3)nc(-c3cccc(C#CCC4CCCC4)c3)c2[C@@H]1CCO (stereo not given in full) | -58
CNC[C@H]1Oc2ccc(NS(=O)(=O)c3ccc(OC)cc3)cc2C(=O)N([C@H](C)CO)C[C@@H]1C | -10
N#C[C@@H]1[C@@H](c2ccccc2-c2ccc(F)cc2)[C@H](CO)N1C(=O)Cc1cccnc1 | -53
Cc1ccc(-n2c(=O)[nH]c3c(oc4nc(-c5ccccc5)cc(-c5ccccc5)c43)c2=O)cc1 | -58
O=C1CCCCn2cc(nn2)COC[C@H](Cc2ccccc2)N1 | 6
O=C1CCc2cc(S(=O)(=O)NCc3ccc(Cl)cc3)cc3c2N1CCC3 | 46
CCc1ccc(CNC(=O)Cn2ncc3c(N4CCCCC4)ncnc32)cc1 | 168
CCCn1c(=O)c2[nH]c(C34CC5CC(CC3C5)C4)nc2n(CCC)c1=O | -28
c1ccc(-n2cccn2)c(CNC2CCC3(CCNCC3)CC2)c1 | 4
Cc1[nH]c2c(F)cccc2c1CC(=O)N(C)CCc1noc(C(C)C)n1 | -3
CCOC(=O)c1ccccc1NC(=O)NCC(c1cccnc1)c1cn(C)c2ccccc12 (stereo not given) | i
N#C[C@@H]1N[C@H](CO)[C@@H]1c1ccc(-c2cccc(F)c2)cc1 | 15
CN1CCC(c2nnc3ccc(C(=O)NCCc4cccs4)cn23)C1 (stereo not given) | 1

(next part)
compound | Tg IFNy HTS
Cc1ncsc1CN(Cc1ccccc1)C1CCNCC1 | 4
Cc1ccc(-n2cc(CN(C)CC3CCOCC3)c(-c3ccc(F)cc3)n2)cc1 | 10
O=C(Cn1nnc(-c2cc(Cl)ccc2-n2cnnn2)n1)Nc1ccc(F)cc1 | 2
CC[C@@H]1CC=CC[C@@H](C)Oc2ccccc2C(=O)N(C)[C@@H](C)C(=O)N1 (mixture of isomers) | 40
CCOCc1nnn2c1CN(Cc1c(C)noc1C)CCC2 | 0
CC(C)n1nc2c(cc1=O)CN(C(=O)c1ccc3c(c1)OCO3)CC2 | -80*
Cc1ccccc1-c1cc(O)c2c(c1)CN(C(=O)C1CCCO1)CCO2 (stereo not given) | -23
CCn1nnc2c1C(COC)CN(C(=O)Cc1cccs1)C2 (stereo not given) | 11

Compounds above that have an NH in an aromatic ring:
compound | Tg IFNy HTS
Cc1[nH]c2ccccc2c1CC(=O)N1Cc2cnc(CC(C)C)nc2C1 | 1
CN1CCC(C)(CNC(=O)CSc2nc3ccccc3c(=O)[nH]2)C1 (stereo not given) | 3
COc1cccc(-c2noc(-c3c(O)c4cc(C)ccc4[nH]c3=O)n2)c1OC | 12
COc1ccc2c3c([nH]c2c1)[C@@H](CO)N(C(=O)CN(C)C)CC31CCN(Cc2cncnc2)CC1 | 9
Cc1ccc2nc(C)c(C(=O)NCCSc3ncn[nH]3)cc2c1 | 35
c1ncc(CCCC2CCNCC2)[nH]1 | 10
Cc1ccc(-n2c(=O)[nH]c3c(oc4nc(-c5ccccc5)cc(-c5ccccc5)c43)c2=O)cc1 | -58
CCCn1c(=O)c2[nH]c(C34CC5CC(CC3C5)C4)nc2n(CCC)c1=O | -28
Cc1[nH]c2c(F)cccc2c1CC(=O)N(C)CCc1noc(C(C)C)n1 | -3

The list goes on:
compound | Tg IFNy HTS
CC(=O)c1ccc2c(c1)N(CCCN1CCN(CCO)CC1)c1ccccc1S2 | 28
O=C(c1ccccc1NCc1cccs1)N1CC[C@@H](O)C1 | -13
CCOCC(=O)N1Cc2nnn(C)c2C(COCc2ccccn2)C1 (stereo not given) | 99
CCn1c2c(ccc1=O)CC(NS(=O)(=O)c1cn(C)cn1)CC2 (stereo not given) | 5
CC1=C(/C=C/C(C)=C/C=C/C(C)=C/C=O)C(C)(C)CCC1 | 11
COC(=O)c1ccc(C)c(NS(=O)(=O)c2ccc3c(c2)c(=O)sn3C)c1 | -60
CCc1cc(CN(C)C(=O)CN2C(=O)c3ccccc3C2=O)on1 | 3
CCOC(=O)c1nc(NCC2CCN(Cc3cccc(F)c3)CC2)c2ccccc2n1 | -29
O=C1CCC2C(CCN2Cc2ccccc2)N1CC1CCOCC1 (stereo not given) | i
Cc1noc([C@H]2C[C@@H]3OCC[C@@H]3N(Cc3ccoc3)C2)n1 | -2
COc1ccccc1C1(O)CCN(CCCn2c3ccccc3c3ccccc32)CC1 | -77*!
CCOC(=O)C1=C(N)Oc2c(oc(CO)cc2=O)C1c1ccc(F)c(F)c1 (stereo not given) | -3
Cc1cc(C(=O)N2CCC(c3cc4c(ncn4C)c(NCC4CC4)n3)CC2)ccc1Cl | -85*
CS(=O)(=O)NC[C@@]12COC[C@@H]1CN(Cc1ccc3c(c1)OCO3)C2 | -8
CO[C@@H]1CN(C)C(=O)c2ccc(NS(=O)(=O)c3c(C)noc3C)cc2OC[C@H](C)NC[C@H]1C | -31
Cc1cc(C(=O)Nc2ccc(Oc3c(Cl)cccc3Cl)nc2)n(C)n1 | -53
CC(C)N1CCC2(CC1)CC(NCc1cccs1)c1ccccc1O2 (stereo not given) | -8
Cc1nc(-c2ccccc2)sc1C(=O)O | 139
CC(C)c1ccccc1NC(=O)C1CC(=O)N(CCc2c[nH]c3ccc(Cl)cc23)C1 (stereo not given) | -25
Cc1ccc(S(=O)(=O)Nc2ccc3c(c2)C(=O)N([C@@H](C)CO)C[C@H](C)[C@@H](CN(C)Cc2ccc(C(F)(F)F)cc2)O3)cc1 | -60
C[C@@H]1CCCCO[C@H](CN(C)C(=O)Nc2ccc3c(c2)OCO3)[C@H](C)CN([C@@H](C)CO)C(=O)c2cc(NS(=O)(=O)c3ccc(F)cc3)ccc2O1 | 26
CCCNC(=O)[C@@H]1[C@@H](CO)[C@@H]2Cn3c(ccc(/C=C/c4ccccc4)c3=O)[C@@H]2N1CC1CC1 | -40
COc1ccc(CN2C(=O)CO[C@H]3CN(CC4CCOC4)C[C@@H]32)cc1 (stereo not given in full) | 120
O=C(C[C@@H]1CC[C@@H]2[C@H](COC[C@@H](O)CN2CC2CCOCC2)O1)NCC1CCCCC1 | -12
COc1ccc(C)cc1NC(=O)N1CCC2(CC1)Nc1cc(F)ccc1-n1cccc12 | 296
O=C(NCCN1CCCC1)c1cc2c(c(-c3cccc(C4=CCCC4)c3)n1)[C@@H](CCO)N(CC1CC1)C2 | -51
COc1ccc(OC)c(S(=O)(=O)NCCc2csc(-c3cccc(F)c3)n2)c1 | -48
CCOc1ccccc1NC(=O)N1CCN(Cc2nc(-c3ccc(C)cc3)oc2C)CC1 | 2
Fc1ccc(N2CCCN(Cc3ccc(-c4ccn[nH]4)o3)CC2)cc1 | 14
O=C(c1cc2c(c3ccccc3n2CC2CC2)n1-c1ncccn1)N1CCCCC1 | -9
Cc1cc(C)cc(NC(=O)c2c(O)c3ccccc3n(-c3ccccc3)c2=O)c1 | 1
FC(F)(F)c1[nH]c2ccccc2c1CN1CCOCC1 | -60
CN1c2ccc(-c3ccccc3F)cc2[C@@H]2[C@@H](CCN2C(=O)Nc2cc(F)ccc2F)[C@@H]1CO | -6
CC(=O)N1C(Cn2cccn2)CC2CN(C(N)=O)CCC21 (stereo not given) | -20
CS(=O)(=O)c1ccc(-c2cc(NCCO)nc3[nH]ccc23)cc1 | 12
COc1ccc(NC(=O)c2cccc(CN3C[C@@H](C)O[C@@H](C)C3)c2)cc1 | 27
COCCN1CCCC(O)(CN2CCN(Cc3nccn3C)CC2)C1=O (stereo not given) | -3
Fc1ccc(F)c(CN2[C@@H]3CNC[C@H]2C3c2ccc(-c3ccncc3)cc2)c1 (stereo not given in full) | -45&-48
CCOC(=O)N[C@H]1C[C@@H](C(=O)NCCc2cccc(Cl)c2)N(C)C1 | 71
Cc1cc(-c2cnn(C)c2)cc(C2CCCN(C(=O)CC3=CC(C)(C)NC(C)(C)C3)C2)n1 (stereo not given) | -20
CC1CCN(c2ccc3ccc(C(=O)NCCCN(C)C)cn23)CC1 | -4
CC(=O)N[C@@H]1C[C@H](Cc2ccccc2)O[C@H](c2cc(C)cc(F)c2)C1 | 3
Cc1ccoc1C(=O)N1CCn2c(C(N)=O)cnc2C1 | 4
COc1cc2nnc3c(c(-c4ccccc4)nn3-c3ccccc3)c2cc1OC | 6
COc1cc(/C=C(\C#N)C(N)=O)cc(CSc2nc3ccccc3s2)c1O | -3
C[C@@H]1CCCCO[C@@H](CN(C)Cc2ccc(C(F)(F)F)cc2)[C@H](C)CN([C@H](C)CO)C(=O)c2cc(NC(=O)Nc3cccc4ccccc34)ccc2O1 | 267
c1ccc(CN2CCN(c3ncnc4ccccc34)CC2)cc1 | -86*
COc1ccc(NC(=O)CS(=O)CC(=O)Nc2ccc(N3CCOCC3)cc2)cc1 (stereo not given) | -1
CCCCCNC(=O)CCC1Nc2c3ccccc3nc(=S)n2C1=O (stereo not given) | 11
CCS(=O)(=O)N1C[C@H](OCc2csc(C)n2)[C@@H]2COC[C@@H]21 | -66
CN(Cc1cccnc1)Cc1cn2c(n1)CN(C(=O)N(C)C)CC2 | 2
O=C(c1cc2cccnc2n(Cc2ccc(F)cc2)c1=O)N(Cc1ccccc1)Cc1ccccc1 | 78

Not all compounds are listed; the hit share may differ from the screen's.
